BJeLR viability – kills HRASV12-expressing BJeLR cells; BJeLR (HRASV12) viability, CellTiter-Glo ATP luminescence, 48 h; reference of the scale not given here; 300,000 tested, 0.17% active; AID 1554; inhibition, % (test concentration not listed);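 active means replicate mean above 50%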;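 further: 50 nL library stock added to about 25 µL; numbers are from one replicate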
Bead autofluor – compound fluorescence in toxin protease inhibitor counterscreen; compound autofluorescence counterscreen, microsphere flow cytometry; hits give high values; fluorescence intensity (test concentration not listed); 360,000 tested, 3.1% active; AID 624483;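 active means at least 3 SD above the mean of all compounds, about 16000 in these data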;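 further: 100 nL of 1 mM stock went into each well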
PrP 5UTR inh – inhibition of PrP 5' UTR reporter expression; cell-based PrP 5' UTR mRNA reporter, plate reader; 340,000 tested, 0.35% active; inhibition, % (concentration not given with the values);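 active means every replicate at 50% or more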;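 further: 0 = median of the neutral control wells; tested in H4 reporter cells; numbers are from one replicate; inactives centre near -14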
Sa RN4220 lethal – S. aureus RN4220 growth inhibition | OD600, 16 h | inhibition, % (concentration not given with the values) | 330,000 tested, 0.33% active | AID 1259311;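 active means z-score of -3 or lower and OD600 up to 0.18 on both plates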;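 further: plate controls were untreated cells for no effect and reference antibiotic for full effect; stock transfer was 100 nL into about 80 µL; one replicate is shown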
Mtb hypoxia rep – inhibitors of hypoxia-regulated fluorescent reporter in Mycobacterium tuberculosis | 300,000 tested, 0.1% active | M. tuberculosis hypoxia-regulated fluorescent reporter, fluorescence | fluorescence inhibition, % (concentration not given with the values) | AID 1159583;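 active means 35 to 45% if threefold the growth effect, above 45% if 1.5-fold the growth effect; inactive means the rest, general growth blockers included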;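 further: wells of about 50 µL received 100 nL stock; 0% = vehicle wells and 100% = reference inhibitor wells; whole bacteria with a GFP reporter of the hypoxia response; strong numbers were not always called active; many hits fall short of the cut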
Sa ugtP lethal – kills S. aureus RN4220 lacking UgtP | S. aureus RN4220 ugtP deletion, OD600 growth, 16 h; some inactives read as strong as hits | growth inhibition, % (test concentration not listed) | 330,000 tested, 0.54% active | AID 1259309;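 active means z-score under -3 and OD600 up to 0.15 on both plates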;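 further: plate controls were untreated wells for no effect and antibiotic for full effect; wells of about 80 µL received 100 nL stock; the first replicate is given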
Mtb hypoxia rep growth – also measured in Mtb hypoxia rep; calls as there; growth inhibition, %; measured here: M. tuberculosis growth (absorbance);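 0% = vehicle and 100% = reference antibiotic; read after six days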
* hit, by the source's call; . = no result given; & = joins results of further samples. Outcome played no part in choosing rows (roughly 4% active in at least one column).

SMILES	BJeLR viability	Bead autofluor	PrP 5UTR inh	Sa RN4220 lethal	Mtb hypoxia rep	Mtb hypoxia rep growth	Sa ugtP lethal
Cc1ccc(C)c(S(=O)(=O)N(C)C2(C)CCS(=O)(=O)C2)c1 (stereo not drawn)	-7	6337	-17	1.9	5	6	8
O=C(CCNC(=O)c1ccccc1Cl)Nc1ccccc1N1CCCC1	-8	7365	-9	1.4	10	-3	-3
CCOC(=O)CCCNC(=O)CSc1nc2ccc(OCC)cc2[nH]1	-9	4876	-22	5.0	8	-1	8
O=C(COC(=O)CCc1nc2ccccc2c(=O)[nH]1)Nc1ccccc1	.	3965	-8	-2.4	7	1	4
Cc1ccc(NC(=O)C(=O)NCCCN2CCOCC2)c(C)c1	10	4493	-22	14	11	7	8
O=C(C[n+]1ccccc1)NN=Cc1ccc(Br)cc1	.	.	.	4.9	5	-1	9
O=C(COC(=O)/C=C/c1ccc2c(c1)OCO2)NCc1ccccc1	.	5408	-9	1.5	4	9	-3
O=C(COC(=O)CCC(=O)c1ccc(F)cc1)Nc1cccc(S(=O)(=O)N2CCOCC2)c1	10	3706	-9	14	6	13	4
O=C(O)Cn1nnnc1SCC(=O)Nc1ccc(F)cc1F	-8	2569	-5	-0.9	4	5	1
CCc1ccc(C(=O)NNC(=O)c2c(CC)noc2C)cc1	-1	5108	-14	5.7	12	4	0
N#Cc1nc(-c2cccs2)oc1N1CCN(c2ccccc2)CC1	2	20556*	-1	7.6	7	8	-26
COc1ccc(NC(=O)CCN2CCC(C)CC2)cc1	-6	4549	-16	2.6	7	6	5
COc1cc(-c2cc(-c3ccc(F)cc3)nc(N)c2C#N)ccc1O	-6	4539	-6	5.7	5	9	8
CCOC(=O)N1CCC(N2CCCC(CO)(Cc3cccc(OC)c3)C2)CC1 (stereo not drawn)	3	6006	-16	3.3	-10	0	3
COC(=O)c1c(-c2ccsc2)oc2ccc(-c3cc(OC)c(OC)c(OC)c3)cc12	3	4286	-11	5.9	-16	-23	2
COc1ccc(CCN(C)CCC(=O)Nc2c(C)cc(C)cc2C)cc1OC	-10	3968	-26	1.3	7	5	4
C=C(NS(=O)(=O)c1ccc(C)cc1)C(=O)OC	.	3767	-12	4.1	3	8	7
COc1cc(C(=O)Nc2ccc3ccccc3c2)cc(OC)c1OC	39	.	.	0.4	-1	-4	2
CC1CN(C(C)CO)C(=O)c2cc(NC(=O)Nc3cccc4ccccc34)ccc2OC1CN(C)Cc1ccc(-c2ccccc2)cc1 (stereo not drawn)	.	.	.	-3.3	-3	7	-22
O=C(Nc1nc2c(F)cccc2s1)C1CC1	-3	5203	-51	-0.8	3	17	-10
Cc1ccc(C2/C(=C(\O)c3cnn(-c4ccccc4)c3C)C(=O)C(=O)N2CCN(C)C)o1 (stereo not drawn)	7	4271	-40	5.7	.	.	1
COc1cc(/C=C/C(=O)OCC(=O)Nc2ccc3c(c2)OCCO3)ccc1OCC#N	-3	2055	-34	4.0	15	11	-4
COC(=O)c1ccc(C2/C(=C(\O)c3ccc4c(c3)OCCO4)C(=O)C(=O)N2CCCN2CCOCC2)cc1 (stereo not drawn)	-2	5052	-22	3.1	7	6	5
Cc1ccc(C)c(NC(=O)C(OC(=O)c2cnc(C)cn2)c2ccccc2)c1 (stereo not drawn)	0	6481	-6	0.3	9	8	3
Cc1ccc(C(=O)NNC(=O)C(NC(=O)c2cccc(C)c2)C(C)C)cc1 (stereo not drawn)	.	5563	-4	2.1	0	2	3

Structural class, the entries above containing an aryl thioether with sulfur outside any ring.
SMILES	BJeLR viability	Bead autofluor	PrP 5UTR inh	Sa RN4220 lethal	Mtb hypoxia rep	Mtb hypoxia rep growth	Sa ugtP lethal
CCOC(=O)CCCNC(=O)CSc1nc2ccc(OCC)cc2[nH]1	-9	4876	-22	5.0	8	-1	8
O=C(O)Cn1nnnc1SCC(=O)Nc1ccc(F)cc1F	-8	2569	-5	-0.9	4	5	1

Rewritten with bars between the fields: part of the list above.
SMILES | BJeLR viability | Bead autofluor | PrP 5UTR inh | Sa RN4220 lethal | Mtb hypoxia rep | Mtb hypoxia rep growth | Sa ugtP lethal
O=C(COC(=O)CCc1nc2ccccc2c(=O)[nH]1)Nc1ccccc1 | . | 3965 | -8 | -2.4 | 7 | 1 | 4
Cc1ccc(NC(=O)C(=O)NCCCN2CCOCC2)c(C)c1 | 10 | 4493 | -22 | 14 | 11 | 7 | 8
O=C(C[n+]1ccccc1)NN=Cc1ccc(Br)cc1 | . | . | . | 4.9 | 5 | -1 | 9
O=C(COC(=O)/C=C/c1ccc2c(c1)OCO2)NCc1ccccc1 | . | 5408 | -9 | 1.5 | 4 | 9 | -3
O=C(COC(=O)CCC(=O)c1ccc(F)cc1)Nc1cccc(S(=O)(=O)N2CCOCC2)c1 | 10 | 3706 | -9 | 14 | 6 | 13 | 4
O=C(O)Cn1nnnc1SCC(=O)Nc1ccc(F)cc1F | -8 | 2569 | -5 | -0.9 | 4 | 5 | 1

Additional records.
SMILES	BJeLR viability	Bead autofluor	PrP 5UTR inh	Sa RN4220 lethal	Mtb hypoxia rep	Mtb hypoxia rep growth	Sa ugtP lethal
COc1ccc(C(=O)Nc2c3c(nn2-c2cccc(Cl)c2)CS(=O)C3)cc1 (stereo not drawn)	-1	4125	-15	1.3	.	.	4
COc1ccc(CCNC(=O)c2cc(-c3ccco3)on2)cc1OC	6	4556	-18	3.0	12	1	4
Cc1ccc(C(=O)NCC(=O)NCc2ccc(Cl)cc2)s1	.	4102	-29	-3.7	21	8	6
COc1ccc(CN(C2CCCCC2C)S(=O)(=O)c2ccc(S(=O)(=O)N(C)C)cc2)cc1OC (stereo not drawn)	-4	1933	-14	11	-11	-5	-3
CC1CCCN(C(=O)C2CC(=O)N(c3ccc(Cl)cc3)C2)C1 (stereo not drawn)	3	4175	-13	2.8	8	8	2
Cc1ccc2[nH]c3c(=O)n(CCC4=CCCCC4)cnc3c2c1	-9	.	.	2.8	-11	-6	1
C=CCNC(=O)c1ccc(Cn2c(=S)[nH]c3cc4c(cc3c2=O)OCO4)cc1	2	8608	-15	2.1	-2	6	-9
O=C(NCc1ccccc1)C(c1ccco1)N(C(=O)c1csnn1)C1CC1 (stereo not drawn)	-9	5611	-11	4.4	5	0	2
C=CCC(CC(=O)N(CCO)Cc1ccccc1)C(=O)NC(C)COC(=O)C(CC=C)Cc1ccc(F)cc1 (stereo not drawn)	.	.	.	6.6&4.0&-3.5&0.8	1&5&-3&12	-7&8&4&4	3&-8&-26&-8
C=CCn1c(C)cc(C(=O)CSc2nnc(NCc3ccccc3)s2)c1C	.	5827	-13	-7.7	-12	13	-19
Cc1ccc(-c2n[nH]c(=S)n2N=Cc2c(C)[nH]n(-c3ccccc3)c2=O)cc1	.	.	.	15	0	6	2
CCOC(=O)C1CCN(C(=O)COC(=O)c2ccc(Br)o2)CC1	1	4577	-22	2.8	.	.	1
COc1cccc(C(C)NC(=O)Nc2cccc(C(F)(F)F)c2)c1 (stereo not drawn)	4	2409	-5	15	1	0	-14
COc1cc2cc(CN(Cc3ccc4c(c3)OCO4)C(=O)c3ccco3)c(=O)[nH]c2cc1OC	-1	16500*	-75	2.2	7	8	3
NC(=O)c1ccsc1NC(=O)COC(=O)Cc1ccccc1	.	2757	15	2.9	-4	-9	-3
Cn1c(SCC(=O)NC2CC2)nnc1-c1ccc(Cl)cc1	.	6380	-7	3.1	2	0	0
COC(=O)c1ccc([C@H](NC(=O)c2ccco2)[C@]2(C)C[C@H]2C2CCCCC2)cc1	-2	3818	-12	.	.	.	.
CCOC(=O)c1c(C)noc1CP(=O)(c1ccccc1)c1ccccc1	5	4137	5	3.8	.	.	2
Cc1c(C(=O)N2CCOCC2)sc2nc(-c3ccccc3)cn12	2	9038	-52	3.4	6	5	-3
CCCCCCN(C(=O)CCCCCN1C(=O)NC(c2ccc(-c3ccccc3)cc2)C(C(=O)OCc2ccccc2)=C1C)C(C(=O)NCCCC)c1ccccc1 (stereo not drawn)	-20	.	.	4.7	0	-2	2
CN(CC(=O)N1CCCCCC1)S(=O)(=O)c1ccc(F)cc1	-8	3992	-46	8.5	3	0	11
COC(=O)c1cccc(CSc2nnc(C)s2)c1	1	8691	-29	1.8	-3	12	-6
CCCCCc1ccc(-c2ccc(OCC)cc2)nc1	-23	4423	-21	61	3	9	13
COc1cc(/C=C/C(=O)OCC(=O)NC(=O)NC2CCCC2)ccc1OCC#N	.	5030	-22	0.3	2	3	8
O=C(Nc1cccc([N+](=O)[O-])c1)C1CC(=O)N(Cc2ccccc2)C1 (stereo not drawn)	0	4494	-1	5.1	13	6	1

Of the compounds above, 4 have a cyano group:
SMILES	BJeLR viability	Bead autofluor	PrP 5UTR inh	Sa RN4220 lethal	Mtb hypoxia rep	Mtb hypoxia rep growth	Sa ugtP lethal
N#Cc1nc(-c2cccs2)oc1N1CCN(c2ccccc2)CC1	2	20556*	-1	7.6	7	8	-26
COc1cc(-c2cc(-c3ccc(F)cc3)nc(N)c2C#N)ccc1O	-6	4539	-6	5.7	5	9	8
COc1cc(/C=C/C(=O)OCC(=O)Nc2ccc3c(c2)OCCO3)ccc1OCC#N	-3	2055	-34	4.0	15	11	-4
COc1cc(/C=C/C(=O)OCC(=O)NC(=O)NC2CCCC2)ccc1OCC#N	.	5030	-22	0.3	2	3	8

Single records (already shown). Order of screens: BJeLR viability | Bead autofluor | PrP 5UTR inh | Sa RN4220 lethal | Mtb hypoxia rep | Mtb hypoxia rep growth | Sa ugtP lethal
Shown for `COC(=O)c1cccc(CSc2nnc(C)s2)c1` : 1 | 8691 | -29 | 1.8 | -3 | 12 | -6
Shown for `CCOC(=O)c1c(C)noc1CP(=O)(c1ccccc1)c1ccccc1` : 5 | 4137 | 5 | 3.8 | . | . | 2

(list continues)
SMILES	BJeLR viability	Bead autofluor	PrP 5UTR inh	Sa RN4220 lethal	Mtb hypoxia rep	Mtb hypoxia rep growth	Sa ugtP lethal
CN(CC1CCOCC1)C(=O)c1ccc2nc(Cc3cccc(Cl)c3)oc2c1	4	4304	4	6.9	0	-5	14
Cc1ccnn1CCSCC(=O)O	2	12871	-46	4.0	12	14	11
CS(=O)(=O)Nc1ccc(C(=O)N2CCCC2)cc1	1	9601	-38	1.3	0	5	5
CC(C)c1cc(CN2CCN(CCC#N)CC2)cc(C(C)C)c1O	-7	2415	-10	2.8	.	.	8
O=C(NC(=S)N(CCO)Cc1ccccc1)c1cc(Br)ccc1Cl	-1	3393	-17	1.2	13	16	3
S=c1[nH]nc(-c2cc(-c3ccccc3)n[nH]2)n1N=C/C=C/c1ccco1	.	.	.	2.8	14	2	-21
Cc1ccc(S(=O)(=O)NN=Cc2ccc(OCC(=O)NC(C)C)cc2)cc1	.	.	.	6.1	6	-5	-2
Cc1cc(C(C#N)c2ccccc2F)n2ncnc2n1 (stereo not drawn)	2	3279	-7	8.2	4	5	14
CCN(CC)CCCN(Cc1cc2cc3c(cc2[nH]c1=O)OCO3)C(=S)NCCCOC	-4	3448	-18	3.4	11	-1	6
CCN(CC)C(=O)N1c2ccccc2Sc2ccccc21	-9	3752	-4	2.1	2	11	-1
O=C(Nc1ccccc1)c1cccc(N2C(=O)C3C4C=CC(C4)C3C2=O)c1 (stereo not drawn)	10	5730	-21	1.9	3	2	2
CC(C)NS(=O)(=O)c1ccc(CCC(=O)Nc2cc(Cl)ccc2Oc2ccccc2)cc1	7	4654	1	2.6	.	.	-18
Cc1cccc(N=C2NC(=O)c3cc([N+](=O)[O-])ccc32)c1	2	2312	-20	1.1	-3	8	2
CN(C(=S)NC(=O)/C=C/c1ccc(F)cc1)C1CCCCC1	-11	2586	-23	4.2	3	-2	5
Nc1ncc(Br)cc1S(=O)(=O)NCCC(=O)N1CCN(c2ccccn2)CC1	-4	9192	-6	4.8	4	7	9
N#Cc1ccccc1Cn1cc(C(=O)C2CC2)c2ccccc21	1	3213	-2	-3.4	-1	-4	-9
